# From PubChem
# Sfp inh: qHTS Assay for Inhibitors of Bacillus subtilis Sfp phosphopantetheinyl transferase (PPTase) | 4'-phosphopantetheinyl transferase ffp (Bacillus subtilis), Q9F4F7 | Biochemical Sfp PPTase activity, qHTS | Potency, µM, without a hit: max response, negative = inhibition, actives largely listed as inhibitors | 310,000 compounds, 3.5% hits; active means well fitted inhibition curve with a large enough effect; inconclusive means small, poorly fitted or top-dose-only effect, or another doubt; inactive means no such curve, though single readings can be large or run the other way;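 further: the enzyme is Sfp with the accession as filed and its product quenches rhodamine fluorescence; potency means the concentration at half of the fitted maximal effect; 0% = enzyme reaction without inhibitor and -100% = no enzyme wells; top concentration of the series not given in the record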
#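 With Hepes-Na pH 7.6 buffer containing 10 mM MgCl2, Sfp (15 nM) modified BHQ-2-YbbR (12.5 uM) using rhodamine-CoA (5 uM). Two reads 30 minutes apart at 525/598 nm yielded each well's rate.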
# D2 potentiator: Beta-Arrestin HTS for Positive Allosteric Modulators of the Human D2 Dopamine Receptor: Potentiators. D(2) dopamine receptor (Homo sapiens), P14416. potentiation, % (test concentration not listed). 360,000 compounds, 0.23% hits. DiscoveRx D2 beta-arrestin cells, luminescence, 90 min; 100% = 57 uM dopamine signal. AID 624464, 2012; active = potentiation of 50% or more; inconclusive = 30% to 50%; inactive = 30% or less;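 further: compound concentration not given in the record; tested on top of an EC20 dose of dopamine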
# Target sequence (P14416 whole entry, looked up): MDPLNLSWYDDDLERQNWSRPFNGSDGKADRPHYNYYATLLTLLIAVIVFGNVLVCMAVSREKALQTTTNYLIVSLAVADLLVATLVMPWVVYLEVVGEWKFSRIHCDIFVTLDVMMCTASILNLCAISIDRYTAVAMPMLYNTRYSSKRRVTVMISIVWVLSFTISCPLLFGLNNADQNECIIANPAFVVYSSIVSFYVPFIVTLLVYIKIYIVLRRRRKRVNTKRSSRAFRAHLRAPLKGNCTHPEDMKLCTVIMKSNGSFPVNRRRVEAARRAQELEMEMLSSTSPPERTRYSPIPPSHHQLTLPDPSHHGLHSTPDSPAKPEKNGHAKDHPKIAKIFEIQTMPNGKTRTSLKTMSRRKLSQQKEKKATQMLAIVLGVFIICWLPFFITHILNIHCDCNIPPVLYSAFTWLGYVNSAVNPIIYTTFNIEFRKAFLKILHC
#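 PathHunter D2 cells, attached overnight at 37 deg C, received compound in DMSO plus dopamine at EC20 (50 nM final) for 90 min at 37 deg C. Beta-arrestin recruitment was read as luminescence after 1 h with detection reagent at ambient temperature.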
# gsp ag: qHTS for Agonist of gsp, the Etiologic Mutation Responsible for Fibrous Dysplasia/McCune-Albright Syndrome: qHTS; AID 624287, 2012; 340,000 compounds, 0.13% hits; gsp mutant cells, cAMP HTRF, 30 min; control for the full effect not named in the record; Potency, µM (titrated, usually from 76.9 µM), without a hit: at the top dose activation (cAMP increase), hits mostly activators; active = well fitted activation curve with a large enough effect; inconclusive = small, poorly fitted or top-dose-only effect, or another doubt; inactive = no such curve, though single readings can be large or run the other way; cell line not stated here;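 further: phosphodiesterase inhibitor Ro 20-1724 added with compounds to block cAMP breakdown; potency means the concentration at half of the fitted maximal effect; nearly all actives have a fitted effect of over 60% in size; about a fifth of the inactives were tested at one dose only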
#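 Cells in DMEM/10% FBS with G418 were pretreated with compounds in DMSO plus […] (300 uM stock) for 30 min at 37C. cAMP was measured by HTRF (cAMP-d2 plus anti-cAMP antibody-K) after 30 min at room temperature.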
# Menin-MLL FL inh: qHTS Assay for Inhibitors Targeting the Menin-MLL Interaction in MLL Related Leukemias: Competition With Fluorescein Labeled MLL-derived Peptide. 290,000 tested, under 10 active. FP activity change, % at 61.4 µM. Fluorescence polarization, fluorescein-MLL peptide displacement from menin; inconclusive = falling polarisation curve, or a change in total fluorescence; inactive = total fluorescence flat and polarisation flat or rising; no compound was filed as active; the % refers to the polarisation; negative = inhibition;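 further: % of control where 0% means no effect; inhibitors lower the polarisation; unlabelled MLL peptide was the positive control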
# gsp antagonist: qHTS for Antagonists of gsp, the Etiologic Mutation Responsible for Fibrous Dysplasia/McCune-Albright Syndrome: qHTS. gsp-mutant cells, cAMP HTRF, 30 min; control for the full effect not named in the record. Potency, µM (series often up to 76.9 µM), for the others: at the highest dose activity change, negative = inhibition, usual class: inhibitors. 340,000 compounds, 0.4% hits. AID 624288, 2012; active = falling curve of any shape with a large fitted effect; inconclusive = falling curve, mostly with a smaller effect; inactive = flat or rising curve; cell line not stated here;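 further: intracellular cAMP measured with PDE inhibitor Ro 20-1724 present during compound exposure; potency means the concentration at half of the fitted maximal effect; on the % scale 0 is the no-effect control and ±100 the full control effect; nearly all actives have a fitted effect of over 65% in size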
#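 Measurement of cellular cAMP by homogeneous time-resolved fluorescence following a 30 min compound exposure at 37C. The PDE inhibitor […] was present throughout; the assay buffer was DPBS with 0.05% BSA and 0.005% Tween 20.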
# TRPV1 potentiator: HTS Assay for Compounds that Act as Potentiators of the Vanilloid Receptor 1. Transient receptor potential cation channel subfamily V member 1 (Homo sapiens), Q8NER1. TRPV1-expressing cells, Fluo-8 calcium influx, capsaicin EC20 potentiation; host cell line not named in the record; control for the full effect not named in the record. potentiation, % at 8.33 µM. 320,000 compounds, 0.02% hits. AID 540277, 2011; active means potentiation above 80%; inconclusive means 30% to 80%; inactive means below 30%; further: 0% is about no effect
#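 Cells expressing TRPV1 were dye-loaded with Fluo-8 and read kinetically: 10 s baseline, 3 min after compound (agonist portion), then 2 min after EC20 capsaicin (allosteric enhancer portion). Calcium-bound dye fluorescence at 480/520 nm.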
# ClpP mod: qHTS Assay for Activators of ClpP; ATP-dependent Clp protease proteolytic subunit (Bacillus subtilis (strain 168)), P80244; purified B. subtilis ClpP, FRET peptide cleavage, 20 min; Potency, µM (top dose mostly 57.5 µM), for the others: at the top dose activity change, negative = active; 340,000 compounds, 1.9% hits; AID 651965, 2013; active = well fitted falling curve with a large enough effect; inconclusive = small, poorly fitted or top-dose-only effect; inactive = no such curve, though single readings can be large or run the other way; further: potency means the concentration at half of the fitted maximal effect; the source files actives as falling curves though it sought activators and does not explain the sign; nearly all actives have a fitted effect of over 65% in size; many hits overshoot -100%
# Target sequence (P80244 whole entry, looked up): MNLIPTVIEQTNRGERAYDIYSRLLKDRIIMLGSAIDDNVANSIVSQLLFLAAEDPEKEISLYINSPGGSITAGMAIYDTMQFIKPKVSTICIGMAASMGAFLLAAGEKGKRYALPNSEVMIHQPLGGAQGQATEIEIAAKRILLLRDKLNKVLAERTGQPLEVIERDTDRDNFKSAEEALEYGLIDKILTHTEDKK
#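 Purified B. subtilis ClpP, 10 microg/mL final in Tris/HCl pH8 with KCl, BSA, glycerol and Tween-20, cleaved an Abz/nitrotyrosine-quenched decapeptide. Fluorescence (ex 320, em 430) was read at 0 and 20 min at room temperature. Delta was normalized to 5.8 microM ADEP and DMSO/no-enzyme controls.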
# Numbers without * were called inactive; ? = inconclusive; . = not tested or not shown; [ ] = another dose, or the depositor's remark.
SMILES,Sfp inh,D2 potentiator,gsp ag,Menin-MLL FL inh,gsp antagonist,TRPV1 potentiator,ClpP mod
CC1CCCN(CCCOc2ccccc2-c2ccccc2)C1 (stereo unspecified),-19.1%,-20.6,-3.1%[15.4 µM],-7.7,10.3%,3.1,.
O=C(CSC1=NCCN1)NC1CCCCCC1,10.8%,-6.9,-42.9%,4.5,-0.7%,9.8,1.8%
CN[C@H](C)C(=O)NC[C@H]1O[C@@H](n2cc(C)c(=O)[nH]c2=O)C[C@@H]1O,.,1.1,5.7%,.,.,.,-1.5%
CCC(CO)(CO)N(CC(=O)Nc1ccc(OC)cc1)CC(=O)Nc1ccc(OC)cc1,7.1%,-1.7,-24.2%,-18.7,-0.3%,3.8,-0.1%
FC(F)(F)c1cccc(NC(=S)NC(c2ccccc2)c2ccccc2)c1,45.4%[activator],-15.3,-1.3%[15.4 µM],0.0,-20.6%,-6.9,-4.6%
O=c1c2c3c(sc2nc(NCCO)n1-c1ccccc1)CCCC3,3.5%,15.7,-4.2%[15.4 µM],0.4,-16.5%,-11.7,1.9%
COc1ccccc1C(=O)NC(=O)CSc1cccc[n+]1[O-],2.8%,-0.4,6.7%[15.4 µM],-4.0,3.6%,9.6,.
CCC1(c2ccc(F)cc2)NC(=O)N(CC(=O)NC2CCCCCC2)C1=O (stereo unspecified),.,-6.4,-15.3%,.,6.7%,.,0.5%
O=C(COC(=O)c1cccs1)Nc1ccc(Cl)cn1,.,-15.4,-10.5%,.,-7.1%,.,1.2%
COCCNC(=O)CSc1nc2sc(C)c(C)c2c(=O)n1-c1ccccc1,20.8%,-9.0,-16.0%[15.4 µM],0.0,-1.8%,5.4,-0.6%
O=C(CSc1ccc(-c2ccccn2)nn1)NCc1ccc(Cl)cc1,3.1%,-10.3,20.5%[15.4 µM],2.0,2.9%,17.8,.
COc1ccc(-c2cncnc2N)cc1OC,.,1.7,10.9%,.,.,.,-3.9%
CCOC(=O)c1cccnc1SC(CC)C(=O)NCc1ccco1 (stereo unspecified),-10.7%,-7.8,14.1%,2.1,4.8%,0.1,-0.2%
CC1Cn2c(nnc2-c2ccccc2O)S1 (stereo unspecified),-4.4%,-1.6,-11.1%,1.0,1.9%,.,?
O=C(c1ccncc1)N1CCN(C2CCC(c3ccccc3)CC2)CC1 (stereo unspecified),79.4µM*,-17.7,-11.9%,-2.5,5.7%,-12.3,.
COc1n[nH]c(C(=O)Nc2cc(F)ccc2C)c1[N+](=O)[O-],3.5%,-12.5,-2.2%,2.3,-23.6%,2.1,-1.9%
CN(C(=O)c1ccc(F)cc1)c1ccccc1C(=O)NCc1ccccc1,10.0%,-34.6,-38.3%[inhibitor],-2.1,-8.3%,-2.4,0.6%
CCOc1ccccc1NC=C1C(=O)OC2(CCCCC2)OC1=O,-4.2%,-0.4,-5.0%,1.2,?,-8.1,-2.3%
Cc1cccc(CN2CCN(Cc3cccc4nonc34)CC2CCO)n1 (stereo unspecified),9.5%,-14.3,?,-4.6,0.7%,2.5,.
CN(C)C(=O)c1ccc(NC(=O)COc2cccc(Oc3ccccc3)c2)cc1,-1.2%,3.6,?,.,8.5%,-1.5,-3.5%
CCCN(C(=O)COC(=O)COc1c(C)cccc1C)c1c(N)n(Cc2ccccc2)c(=O)[nH]c1=O,.,-23.7,-7.4%[15.4 µM],.,2.4%,8.7,1.0%
Cc1cc(C)n(S(=O)(=O)c2ccc(C)c(C)c2)n1,12.1%,-0.5,-11.2%,0.3,19.5%,-4.9,-1.0%
COC(=O)COc1cccc(NC(=O)C(c2ccccc2)c2ccccc2)c1,3.8%,4.2,-48.2%[inhibitor],-1.3,?,0.3,.
CC(=O)C1=C(O)C(=O)N(Cc2ccco2)C1c1cccc(F)c1 (stereo unspecified),-7.0%,1.4,8.4%[15.4 µM],-8.8,7.3%,2.9,0.0%
Cc1nc(SC2CC(=O)N(c3ccc([N+](=O)[O-])cc3)C2=O)nc2c1CCCC2 (stereo unspecified),-18.7%,-22.8,?,1.7,16.6%,-18.7,2.8%
CC(C)(C)[C@H]1COC(=O)[C@H](NC(=O)OCC2c3ccccc3-c3ccccc32)C/C=C\C[C@@H](CC(=O)N[C@H](CO)Cc2ccccc2)C(=O)N1,.,-9.8,.,.,4.8%,.,-8.0%
COC(=O)CC1=Nc2ccccc2NC(=O)C1,2.7%,3.9,-19.2%,-1.7,6.5%,-7.7,1.0%
S=C(NCCSCc1c(Cl)cccc1Cl)Nc1ccccc1,-0.8%,11.8,1.6%,-2.9,-14.8%,-1.4,-1.3%
CN(C[C@@H](Cc1cccc2ccccc12)N(C[C@H](Cc1ccccc1)N(CCc1ccccc1)N=O)N=O)N=O,5.1%,-6.0,21.4%,3.3,-8.8%,15.9,-5.1%
COC(=O)Cc1ccc(NC(=S)Nc2cccc(C)n2)cc1,-0.4%,-0.5,-7.2%[15.4 µM],-3.8,-3.1%,0.5,0.5%
O=C(CCN1C(=O)c2ccccc2C1=O)Nc1ccccc1C(=O)N1CCOCC1,2.3%,-18.3,-19.6%,0.1,-0.3%,6.1,1.1%
O=c1c(Cc2ccc(F)cc2)c(O)ccn1C1CCCCC1,11.2%,-6.0,?,4.0,14.8%,7.1,-0.7%
CCCOc1ccccc1C(=O)N(Cc1cccs1)C1CCS(=O)(=O)C1 (stereo unspecified),-1.8%,1.1,3.5%,-0.6,-6.1%,-1.9,-1.3%
CCOc1cc(C(=O)NCCC(=O)N2CCC3(CC2)NCCc2[nH]cnc23)cc(OCC)c1OCC,8.0%,1.2,-27.2%,-0.1,11.4%,2.1,-1.6%
O=c1[nH]c2c(Br)cnc([N+](=O)[O-])c2[nH]1,-7.8%,3.2,-6.6%[15.4 µM],1.0,13.6%,19.1,.
CCCCNc1nc2c(c(=O)n(C)c(=O)n2C)n1Cc1cccc(OC)c1,7.2%,-13.9,-2.6%,-0.3,5.9%,10.3,-1.9%
CC(=O)c1cccc(NC(=O)c2ccc3c(c2)C(=O)N(Cc2cccnc2)C3=O)c1,-0.3%,-10.4,0.2%,.,?,-12.7,-1.6%
CCC(NC(=O)CCl)c1ccc(C)cc1 (stereo unspecified),18.2%,6.0,17.3%[15.4 µM],1.9,4.0%,9.0,1.1%
CCN(C(=O)COC(=O)CCNS(=O)(=O)c1ccccc1F)c1c(N)n(Cc2ccccc2)c(=O)[nH]c1=O,.,-4.1,-4.0%[15.4 µM],.,6.9%,.,.
O=C(CN1CCN(c2ccc(F)cc2)CC1)c1ccc(O)cc1O,-2.0%,-20.2,0.3%,-3.2,2.9%,-8.8,-5.7%
Cc1ccccc1NS(=O)(=O)c1cc(C(=O)NCCSC2CCCCC2)ccc1C,12.2%,-12.9,-9.2%,2.4,-3.9%,?,1.0%
COc1cc(/C=N/N2CCN(C3c4ccccc4-c4ccccc43)CC2)ccc1O,10.4%,3.9,-23.9%,2.0,-17.4%,0.1,-0.6%
O=C(CCCCn1ccc(=O)[nH]c1=O)Nc1ccc(C(=O)O)c(O)c1,.,2.0,-70.2%[inhibitor],.,4.6%,.,.
O=C(CCN1C(=O)/C(=C\c2ccccc2)SC1=S)Nc1ccc(C(=O)O)cc1,4.6%,0.0,-3.4%[15.4 µM],-3.9,-12.5%,1.7,.
COc1ccc(C(=O)n2nc(C)cc2Nc2ccccc2)cc1,-18.7%,1.3,-60.3%[inhibitor],0.7,?,2.6,-0.6%
CCCCCCCOc1ccc(C2(C)NC(=O)NC2=O)cc1 (stereo unspecified),18.2%,-2.2,-0.1%[15.4 µM],-6.0,10.4%,6.7,-0.3%
COCCN1CCN(Cc2cn(C)nc2-c2ccc(Oc3ccccc3)cc2)CC1,23.8%,-20.7,-4.8%,0.1,0.1%,-13.0,-0.9%
COc1ccccc1CCN1CCCC(CN(C)CC(C)(C)CO)C1 (stereo unspecified),5.0%,-9.7,-28.1%[15.4 µM],2.1,-11.1%,-0.9,-14.3%
O=C(NCC1CCCO1)c1ccc(Cl)c(F)c1F (stereo unspecified),11.4%,-8.0,-1.5%,0.2,3.2%,-10.8,-1.2%
Cc1ccc(OCC(=O)Nc2ccc(-n3cnnn3)cc2)c(C)c1,.,-35.2,-6.8%[15.4 µM],.,2.5%,-13.0,-2.6%
COc1ccc(-c2cc(C(F)F)n3ncc(C(=O)N4CCc5ccccc54)c3n2)cc1,-15.6%,-5.1,-18.1%,8.8,3.4%,-1.0,-6.0%
CC(C)(C)OC(=O)C[C@@H]1C/C=C\C[C@@H](CC(=O)NCCO)C(=O)N[C@H](C(C)(C)C)COC1=O,.,-6.2,.,.,10.9%,.,-0.5%
O=C(NCc1cccc(F)c1)c1cccc2c1C(=O)c1ccc(Cl)cc1S2(=O)=O,.,6.3,22.3%,.,-20.0%,.,2.8%
COc1cc(CNc2ccc3[nH]c(=O)[nH]c3c2)ccc1OCc1ccc(Cl)cc1,-12.8%,0.8,-9.6%,-3.2,-9.6%,-4.6,12.0%
Cc1cc(NC(=O)CSc2nnc(-c3ccncc3)n2-c2ccccc2)no1,8.7%,-9.2,-26.6%,0.7,3.0%,6.9,-1.5%
Cc1ccc(NC(=O)CNC(=O)c2ccc(Oc3ccccc3)cc2)nc1,.,?,-8.2%,.,2.6%,-15.4,0.7%
CC(=O)c1sc(NC(=O)CCCOc2ccc(Cl)cc2)nc1C,8.2%,-17.4,6.4%[15.4 µM],4.0,.,-4.0,.
Cc1ccc(NC(=S)NC(=O)/C=C/c2ccc(Cl)cc2)cc1,-9.7%,-20.9,-2.8%,1.1,12.5%,-14.4,-2.5%
